Compound activity: PubChem, ICCB-Longwood Screening Facility, Harvard Medical School
Sa growth inh: S. aureus growth inhibition at 42 and 30 °C, primary screen, LtaS inhibitor project, RN4220, two temperatures; OD600, 20 h, 42 °C; active compounds read low; relative growth, % (concentration not given with the values); 170,000 tested, 0.53% active;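 active = growth at 42 °C up to 50% and 20 or more points under that at 30 °C, or under 10% at both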;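 also: 300 nL library stock went into each well; scaled to the means of positive and negative controls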
HCMV NEC inh: inhibitors of HCMV UL50-UL53 interaction, biochemical, HTRF; HCMV UL50-UL53 nuclear egress complex (human cytomegalovirus); normalized percent inhibition; inhibition, % (concentration not given with the values); 190,000 tested, 0.15% active;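 active = both replicates at 50% or more, plus weaker picks with an unusually low signal ratio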;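 also: stock transfer was 100 nL into about 20 µL; 0% = negative control wells and 100% = wells with untagged competitor protein; inactives centre near -12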
GIV Gai3 FP: inhibitors of GIV peptide binding to Galpha-i3, primary screen, biochemical, fluorescence polarization, FITC-GIV GBA peptide, rat Galphai3. Guanine nucleotide-binding protein G(i) subunit alpha-3 (Rattus norvegicus), P08753. percent of control (FP), % (test concentration not listed). 210,000 tested, 0.42% active. 90 min; active compounds read low; scaled: aluminum fluoride 0%, vehicle 100%. AID 1224905, 2016;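 active = replicate mean at 85% of control or lower, very high polarization wells dropped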;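 also: lower values mean more displacement of the GIV peptide from Galpha-i3; wells of about 15 µL received 100 nL stock; the first replicate is given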
Target sequence (P08753 whole entry, looked up): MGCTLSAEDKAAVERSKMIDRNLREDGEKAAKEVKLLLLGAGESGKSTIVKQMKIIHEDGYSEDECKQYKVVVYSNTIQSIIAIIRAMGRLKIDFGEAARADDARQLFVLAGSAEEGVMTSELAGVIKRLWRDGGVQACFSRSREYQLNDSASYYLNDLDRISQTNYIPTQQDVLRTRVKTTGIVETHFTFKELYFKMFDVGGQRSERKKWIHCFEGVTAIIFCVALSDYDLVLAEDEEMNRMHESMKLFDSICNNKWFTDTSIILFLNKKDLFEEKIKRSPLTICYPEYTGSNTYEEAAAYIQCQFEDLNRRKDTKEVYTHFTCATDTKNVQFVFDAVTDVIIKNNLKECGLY
Sa growth inh second temp: further read-out of Sa growth inh, marked with its call; relative growth, %; measured here: growth at 30 °C;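 optical density after 20 h as mean of two plates; 100% = untreated growth and lower means inhibition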
An asterisk follows results filed as active; / = no result given.

SMILES | Sa growth inh | Sa growth inh second temp | HCMV NEC inh | GIV Gai3 FP
CC(C)(C)OC(=O)N1CCC(c2c(C(=O)NCc3ccco3)cnn2-c2ccccc2Cl)CC1 | 116 | 96 | / | 105
O=C(O)/C=C/c1ccc(Br)s1 | 80 | 89 | -22 | /
COC(=O)N/N=C(/c1ccccc1)C1CCCCC1 | 97 | 92 | -20 | /
CC(N=C1NS(=O)(=O)c2ccccc21)C(=O)NCCc1ccc2c(c1)OCCO2 (stereo unspecified) | 85 | 91 | -28 | /
Cc1ccccc1-n1c(SCC(N)=O)nnc1-c1ccc(Cl)cc1 | 96 | 82 | -40 | /
COc1ccc(-c2nc(CSc3nncn4c3cc3oc(C)cc34)c(C)o2)cc1 | 110 | 89 | / | 106
CCCCN(CC)C(=O)c1ccc(N2CCNCC2)c(NS(=O)(=O)c2ccc(F)cc2)c1 | / | / | -19 | 103
O=C(CSc1ncnc2ccccc12)Nc1nc2ccccc2s1 | / | / | 6 | 102
Cc1cc2c(cc1S(=O)(=O)NCc1ccc(F)cc1)OCC(=O)N2 | 125 | 82 | / | 111
CCN(CC)C(=O)CSc1nc2cc3c(cc2c(=O)n1CCC1=CCCCC1)OCO3 | 105 | 96 | 0 | 100
CCCCN(Cc1ccccc1)Cc1ccco1 | 94 | 113 | 3 | 104
COc1ccccc1Cn1c(=S)[nH]c2cc(C(=O)NCc3ccco3)ccc2c1=O | 98 | 97 | 12 | 106
O=C(O)c1cc2cc(Cl)ccc2oc1=O | 92 | 93 | -47 | 110
O=C(CC12CC3CC(CC(Br)(C3)C1)C2)OCC(=O)N1CCCC1 | 110 | 84 | -31 | /
Cc1cccc(C(=O)Nc2nnc(S(=O)(=O)N(C)c3ccccc3C)s2)c1 | 93 | 40 | -8 | 110

A draw from above in order of number of heavy atoms, rising:
SMILES | Sa growth inh | Sa growth inh second temp | HCMV NEC inh | GIV Gai3 FP
O=C(O)/C=C/c1ccc(Br)s1 | 80 | 89 | -22 | /
O=C(CSc1ncnc2ccccc12)Nc1nc2ccccc2s1 | / | / | 6 | 102
CCN(CC)C(=O)CSc1nc2cc3c(cc2c(=O)n1CCC1=CCCCC1)OCO3 | 105 | 96 | 0 | 100

Next part
SMILES | Sa growth inh | Sa growth inh second temp | HCMV NEC inh | GIV Gai3 FP
O=C(CCOc1ccccc1)Nc1ccccc1N1CCCC1 | 101 | 92 | -10 | /
Cc1ccc(S(=O)(=O)N2CCCC2C(=O)OCc2nc3ccsc3c(=O)[nH]2)cc1 (stereo unspecified) | 105 | 92 | 1 | /
Cc1ccccc1-c1nnc(SCC(=O)N2CCCCC2)o1 | 108 | 75 | -8 | 105
C=Cc1ccc(CN(c2nc3nc(C)c(Cl)c(C)n3n2)S(=O)(=O)c2ccc(C)cc2)cc1 | / | / | -6 | 103
CC(N)=Nc1cc(-c2ccccc2)[nH]n1 | 103 | 82 | -7 | 103
CC1(C)CC(=O)C2=C(C1)NCN(Cc1ccc3c(c1)OCO3)C2 | 110 | 95 | / | 103
Cc1cc(=O)oc2cc3occ(C(C)(C)C)c3cc12 | 81 | 79 | -16 | 110
COC(=O)CSc1nc2nc[nH]c2c(=O)[nH]1 | / | / | -6 | 100
Cc1ccc(OCCCC(=O)Nc2sc3c(c2C(N)=O)CCCC3)cc1 | 93 | 90 | -26 | 102
Cc1c(Cl)cccc1NC(=O)c1ccc(N2C(=O)c3ccccc3C2=O)cc1 | 85 | 90 | / | 96
Cc1cccc(-c2cc(=O)c3cc(C)ccc3o2)c1 | 92 | 82 | -10 | /
Cc1cc(C(=O)NCC2CCCO2)c2c(C)nn(-c3ccccc3Cl)c2n1 (stereo unspecified) | 106 | 95 | 1 | 109
O=C(CCCn1c(=O)c2cccn2c2ccccc21)Nc1cc(C(F)(F)F)ccc1Cl | 76 | 55 | -12 | 100
CN(C)S(=O)(=O)c1ccc2c(c1)c(=O)c(C(=O)NCc1ccccc1)cn2C | 111 | 91 | / | 104
COc1ccccc1Oc1ccc(N/C=C/C(=O)c2ccco2)cc1 | 101 | 71 | / | 110
CCOC(=O)c1c(N)sc2c1CC(C)(C)NC2(C)C | 91 | 91 | -13 | 101
O=C(O)c1cccnc1SCc1ccc([N+](=O)[O-])cc1 | / | / | -32 | 108
Cn1c(SCC(=O)Nc2ccccc2)nnc1-c1csc(Cc2ccsc2)n1 | 98 | 88 | 4 | 99
CC(Nc1ccccc1CO)C(=O)Nc1cccc(Cl)c1 (stereo unspecified) | 94 | 96 | -16 | /
Cc1ccccc1-c1noc(CSc2nnc(-c3ccncc3)n2-c2ccc(F)cc2)n1 | 94 | 86 | / | 110
Nc1nc(-c2ccccc2)cn1/N=C/c1ccccc1 | 71 | 66 | -3 | /
C/C(=N\c1ccccn1)C1=C(O)c2ccccc2C1=O | 100 | 88 | -50 | /
CCCC(=O)Nc1nnc(Cc2ccc(Cl)cc2)s1 | 117 | 84 | -6 | /
Cc1ccc(NC(=O)C(F)(F)F)c(C(=O)O)c1 | 108 | 75 | -7 | 102
CCCNS(=O)(=O)c1cc2c3c(c1)c(C)cc(=O)n3CC2 | 99 | 81 | -20 | 103
Cc1ccccc1C1CC(=O)c2c(C)nc(N)nc2C1 (stereo unspecified) | / | / | -4 | 98
O=C(O)C1C2C=CC(C2)C1C(=O)OCC1CCCO1 (stereo unspecified) | 88 | 90 | -15 | /
Cc1ccccc1N1C(=O)C(Oc2ccc(Cl)cc2)C1CNC1CCCC1 (stereo unspecified) | / | / | -34 | 99
CCc1ccc(/C=C2\C(=O)NC(C)=C2C(=O)OC)cc1 | 87 | 83 | -38 | 104
Cc1cc(C)cc(NC(=O)N2CCC(CN3CCOCC3)CC2)c1 | 94 | 95 | / | 99

A stretch from the list above, for reference:
SMILES | Sa growth inh | Sa growth inh second temp | HCMV NEC inh | GIV Gai3 FP
Cc1ccc(OCCCC(=O)Nc2sc3c(c2C(N)=O)CCCC3)cc1 | 93 | 90 | -26 | 102
Cc1c(Cl)cccc1NC(=O)c1ccc(N2C(=O)c3ccccc3C2=O)cc1 | 85 | 90 | / | 96
Cc1cccc(-c2cc(=O)c3cc(C)ccc3o2)c1 | 92 | 82 | -10 | /
Cc1cc(C(=O)NCC2CCCO2)c2c(C)nn(-c3ccccc3Cl)c2n1 (stereo unspecified) | 106 | 95 | 1 | 109
O=C(CCCn1c(=O)c2cccn2c2ccccc21)Nc1cc(C(F)(F)F)ccc1Cl | 76 | 55 | -12 | 100
CN(C)S(=O)(=O)c1ccc2c(c1)c(=O)c(C(=O)NCc1ccccc1)cn2C | 111 | 91 | / | 104
COc1ccccc1Oc1ccc(N/C=C/C(=O)c2ccco2)cc1 | 101 | 71 | / | 110
CCOC(=O)c1c(N)sc2c1CC(C)(C)NC2(C)C | 91 | 91 | -13 | 101
O=C(O)c1cccnc1SCc1ccc([N+](=O)[O-])cc1 | / | / | -32 | 108
Cn1c(SCC(=O)Nc2ccccc2)nnc1-c1csc(Cc2ccsc2)n1 | 98 | 88 | 4 | 99
CC(Nc1ccccc1CO)C(=O)Nc1cccc(Cl)c1 (stereo unspecified) | 94 | 96 | -16 | /
Cc1ccccc1-c1noc(CSc2nnc(-c3ccncc3)n2-c2ccc(F)cc2)n1 | 94 | 86 | / | 110
Nc1nc(-c2ccccc2)cn1/N=C/c1ccccc1 | 71 | 66 | -3 | /
C/C(=N\c1ccccn1)C1=C(O)c2ccccc2C1=O | 100 | 88 | -50 | /
CCCC(=O)Nc1nnc(Cc2ccc(Cl)cc2)s1 | 117 | 84 | -6 | /
Cc1ccc(NC(=O)C(F)(F)F)c(C(=O)O)c1 | 108 | 75 | -7 | 102
CCCNS(=O)(=O)c1cc2c3c(c1)c(C)cc(=O)n3CC2 | 99 | 81 | -20 | 103
Cc1ccccc1C1CC(=O)c2c(C)nc(N)nc2C1 (stereo unspecified) | / | / | -4 | 98
O=C(O)C1C2C=CC(C2)C1C(=O)OCC1CCCO1 (stereo unspecified) | 88 | 90 | -15 | /
Cc1ccccc1N1C(=O)C(Oc2ccc(Cl)cc2)C1CNC1CCCC1 (stereo unspecified) | / | / | -34 | 99
CCc1ccc(/C=C2\C(=O)NC(C)=C2C(=O)OC)cc1 | 87 | 83 | -38 | 104

The listing continues:
SMILES | Sa growth inh | Sa growth inh second temp | HCMV NEC inh | GIV Gai3 FP
Cc1ccccc1CSC(SCc1ccccc1C)=C(C#N)C(=O)NCc1ccco1 | 111 | 86 | / | 101
CN(C)C(CNC(=O)c1cc(-c2ccc3c(c2)OCCO3)on1)c1ccc(F)cc1 (stereo unspecified) | / | / | -16 | 99
CN(C)c1nc(N)nc(CSc2nnnn2-c2ccc3c(c2)OCO3)n1 | 112 | 86 | -1 | 99
CC(C)NC(=O)C1c2ccccc2Oc2ccccc21 | 95 | 93 | -13 | 111
O=C(COCc1cc(-c2ccc(F)cc2)on1)Nc1cc(Br)ccc1O | / | / | -22 | 100
Nc1ccccc1SCc1nc(-c2ccc(Cl)cc2)no1 | 99 | 93 | -6 | 102
Nc1c(C(=O)Nc2ccc(C(F)(F)F)cc2)sc2nc(-c3cccs3)ccc12 | 92 | 94 | -40 | 106
O=C(Nc1ccc(S(=O)(=O)N2CCC(c3nc4ccccc4s3)CC2)cc1)c1ccc(F)cc1 | 101 | 85 | -12 | 97
CCc1nn(CCCC(=O)NCc2cc(Br)ccc2OC)c(=O)c2cc3occc3n12 | 115 | 98 | -3 | 106
O=C(c1ccc(F)cc1)N1CCCCC(N2CCN(S(=O)(=O)c3ccccc3)CC2)C1=O (stereo unspecified) | 100 | 98 | -8 | /
Cc1ccc(NC(=O)c2cccc(NC(=O)N3CCSc4ncccc43)c2)cc1Cl | 76 | 96 | / | 107
CCOC(=O)C1(Cc2ccc(O)cc2)NC(c2ccccc2F)C2C(=O)N(C)C(=O)C21 (stereo unspecified) | 129 | 88 | -14 | 106
CCCCN(C)C(=O)c1cc2c(Cl)nc3ccccc3c2s1 | 98 | 90 | / | 100
COc1ccc(OCC(=O)Nc2cc(-c3nc4ccccc4o3)ccc2Cl)cc1 | 102 | 94 | -6 | 110
Cc1ccc2c(CC(=O)N3CCN(c4ncccn4)CC3)coc2c1 | 96 | 97 | 1 | /
CC(C)(C)C1CCc2c(sc3nnn(CCOc4ccccc4)c(=O)c23)C1 (stereo unspecified) | 87 | 87 | -35 | 100
Cc1cc(=O)[nH]c(NN)n1 | 101 | 104 | 0 | /
Cc1nc(COc2cccc(C(=O)O)c2)cs1 | 96 | 92 | -3 | /
Cc1sc2c(c1C)CSC(C(=O)Oc1cccnc1)=C2 | 92 | 62 | -78 | 104
C=CCn1nnnc1SCC(=O)Nc1ccccc1C(=O)OC | 99 | 97 | -11 | 104
O=C(CSc1nnc(-c2cccs2)o1)c1ccc(Br)cc1 | 123 | 79 | 33 | 103
CN(C)CCNc1nc2c(c(=O)[nH]c(=O)n2C)n1CC(O)COc1ccc(Cl)cc1Cl (stereo unspecified) | / | / | -10 | 99
CC(C)(C)c1ccc(Oc2ccc(NC(=O)CCCC(=O)O)cc2)cc1 | 94 | 73 | / | 100
Cc1ccc(S(=O)(=O)N(CC(=O)N2CCC(C)CC2)CC(=O)N2CCC(C)CC2)cc1 | 106 | 92 | -17 | 101
Cc1cccc(Cn2c(=O)n3nc(-c4ccccc4)nc3c3ccccc32)c1 | 95 | 95 | 0 | 100
COc1ccc(CNCC2(c3ccccc3)CCCC2)cc1 | 93 | 76 | 7 | /
COc1ccc(/C=C2\SC(=O)N(CCC(=O)N3CCN(C)CC3)C2=O)cc1 | 105 | 102 | -68 | 110
Cn1cnc(S(=O)(=O)Nc2ccccc2)c1 | / | / | 0 | 113
COc1ccc(Cn2c(SCc3cccc(C(F)(F)F)c3)nc3ccncc32)cc1 | 112 | 79 | / | 103
CCOC(=O)c1ccc(-n2cnnn2)cc1 | 117 | 114 | -10 | 101
COc1ccc(-n2cnnc2SCC(=O)N(Cc2ccccc2)C(C)C)cc1 | 94 | 96 | -6 | /
CCN(Cc1ccccc1)c1ccc(C(=O)O)cc1NS(=O)(=O)c1cc(Cl)ccc1OC | / | / | -15 | 95
Cc1ccc(CSc2nc3cccnc3n2Cc2ccc(C(=O)NC3CC3)cc2)cc1 | 107 | 88 | / | 96
CCN1CCN(c2cc(C(=O)O)c3cc(NS(=O)(=O)c4cc(C)c(C)cc4C)ccc3n2)CC1 | / | / | -50 | 103
O=C(COc1ccccc1F)OCc1cccc(C(F)(F)F)c1 | 93 | 100 | 6 | /
O=C(COC(=O)C1CC(O)CN1C(=O)Oc1ccccc1)c1ccc(-c2ccccc2)cc1 (stereo unspecified) | 108 | 91 | -8 | /
CC(C)CC(N=Cc1c(O)c2ccccc2oc1=O)C(=O)O (stereo unspecified) | 83 | 77 | -28 | 99
CCCCN(CC)C(=O)Cn1nc(C)c2c(C)n(-c3ccccc3)nc2c1=O | 105 | 90 | / | 103
O=C(NCc1cc(=O)n2nc(-c3ccccc3)sc2n1)Nc1ccccc1Cl | / | / | -14 | 101
Cc1cccc(CNC(=O)c2ccc(Cn3c(SCc4cccc(F)c4)nc4cccnc43)cc2)c1 | 125 | 112 | / | 99
CCc1ccc(NC(=O)CC2C(=O)N(c3ccccc3)C(=O)N2C(C)C)cc1 (stereo unspecified) | 117 | 94 | / | 103
Cc1cc(/C=N/NC(N)=O)c(C)c(CO)c1 | 85 | 73 | -35 | 103
Cc1ccc(C)c(CNC(=O)c2ccc3c(c2)nc2n3CCOC2)c1 | 94 | 87 | / | 103
